ugtP null kill = kills S. aureus RN4220 lacking UgtP. S. aureus RN4220 ugtP deletion, OD600 growth, 16 h; some inactives read as strong as hits. growth inhibition, % (concentration not given with the values). hit rate 0.54% among 330,000;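 active = z-score under -3 and OD600 up to 0.15 on both plates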;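 note: plate controls were untreated wells for no effect and antibiotic for full effect; wells of about 80 µL received 100 nL stock; the first replicate is given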
RN4220 kill = kills Staphylococcus aureus RN4220; AID 1259311; S. aureus RN4220 growth, OD600, 16 h; hit rate 0.33% among 330,000; inhibition, % (no concentration beside the values);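 active = z-score of -3 or lower and OD600 up to 0.18 on both plates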;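 note: plate controls were untreated cells for no effect and reference antibiotic for full effect; stock transfer was 100 nL into about 80 µL; one replicate is shown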
Mtb hypoxia inh = reduces hypoxia-regulated biosensor signal in M. tuberculosis; M. tuberculosis hypoxia-regulated fluorescent reporter, fluorescence; fluorescence inhibition, % (test concentration not listed); hit rate 0.1% among 300,000; AID 1159583;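 active = 35 to 45% if threefold the growth effect, above 45% if 1.5-fold the growth effect; inactive = the rest, general growth blockers included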;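 note: wells of about 50 µL received 100 nL stock; 0% = vehicle wells and 100% = reference inhibitor wells; whole bacteria with a GFP reporter of the hypoxia response; strong numbers were not always called active; many hits fall short of the cut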
BJeLR lethal = BJeLR cell viability loss. hit rate 0.17% among 300,000. BJeLR (HRASV12) viability, CellTiter-Glo ATP luminescence, 48 h; reference of the scale not given here. AID 1554. inhibition, % (concentration not given with the values);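 active = replicate mean above 50%; inconclusive = above 50% but judged a plate artefact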;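 note: 50 nL library stock added to about 25 µL; numbers are from one replicate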
Autofluor counter = counter-screen for toxin protease inhibitors: compound fluorescence. compound autofluorescence counterscreen, microsphere flow cytometry; active compounds read high. fluorescence intensity (no concentration beside the values). hit rate 3.1% among 360,000. AID 624483;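 active = at least 3 SD above the mean of all compounds, about 16000 in these data; inconclusive = too few beads counted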;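 note: 100 nL of 1 mM stock went into each well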
PrP UTR inh = suppresses PrP 5' UTR mRNA reporter expression. cell-based PrP 5' UTR mRNA reporter, plate reader. hit rate 0.35% among 340,000. inhibition, % (test concentration not listed). AID 488862;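 active = every replicate at 50% or more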;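 note: 0 = median of the neutral control wells; tested in H4 reporter cells; numbers are from one replicate; inactives centre near -14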
Mtb hypoxia inh growth = second read-out of Mtb hypoxia inh, no call of its own (marks repeat the call); growth inhibition, %; measured here: M. tuberculosis growth (absorbance);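 0% = vehicle and 100% = reference antibiotic; read after six days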
* = called active by the depositor; ? = inconclusive; . = no result given.

SMILES	ugtP null kill	RN4220 kill	Mtb hypoxia inh	Mtb hypoxia inh growth	BJeLR lethal	Autofluor counter	PrP UTR inh
CC(=O)Nc1ccc(NC(=O)c2ccc(-c3ccccc3Cl)o2)cc1	0	6.3	7	-2	.	?	-59
O=C(Nc1ccc(NC(=O)c2ccccc2Cl)cc1)c1cccnc1	0	2.9	4	5	-10	5907	-9
O=C(O)CCCCc1nc2ccccc2s1	2	3.3	-4	-4	-5	?	-8
COc1ccc(N2C(S)=C(C#N)C(=O)NC2c2ccco2)cc1 (configuration not stated)	2	-0.3	-3	9	-9	2077	-13
O=C(Nc1ccc2oc(-c3ccc(Cl)c(Cl)c3)nc2c1)c1ncn[nH]1	-2	5.5	5	6	1	3075	-101
S=C(Nc1ccccc1)Nc1ccc(Br)cc1	-12	0.7	7	-2	0	4555	.
CCOC(=O)NNC1CC(=O)N(c2ccc(OC)cc2)C1=O (configuration not stated)	12	2.8	-9	1	-6	15358	-12
O=C(Nc1nccs1)c1ccc(Br)c(S(=O)(=O)N2CCCC2)c1	13	7.2	10	15	9	4014	-12
COc1ccc(NC(=O)C2C(c3ccccc3)C2(Cl)Cl)c(OC)c1 (configuration not stated)	5	8.8	-2	-4	-3	3955	-5
O=C(COC(=O)Cc1ccccc1[N+](=O)[O-])NCc1ccc(Cl)cc1	9	-2.9	7	11	7	2565	-21
CC(C)OCCCNC(=O)CCN1C(=O)COc2ccccc21	-3	-0.3	-13	1	0	10638	-4
Cc1ccc(NC(=O)CSc2nnc(-c3cccnc3)n2CCN2CCCCC2)cc1	1	0.5	10	-5	1	2542	-23
CN1CCC(N(CCc2ccccc2)C(=O)CCC(=O)O)CC1	6	1.0	7	18	5	3525	-11
COc1ccc(C(=O)Nc2ccc(-c3nnn(CC(=O)NCc4ccco4)n3)cc2)cc1	-7	4.5	-3	-5	-2	4801	-14
COc1ccc(-c2cc(N3C(=O)Nc4ccccc4N3O)n[nH]2)cc1OC	-3	4.9	3	5	14	2303	-3
O=C(Nc1ccccc1)c1cccnc1NCCc1ccccc1	52	-0.8	2	12	2	2528	-16
CC(c1ccco1)N(C(=O)c1cccc(S(=O)(=O)N(C)C)c1)c1ccccn1 (configuration not stated)	-1	-0.6	19	1	4	2954	-26
Nc1sc(-c2ccccc2)cc1C(=O)NN=Cc1ccc(Cl)cc1	-13	-17	9	13	.	.	.
CC(C)C(=O)N1CCN(c2c(Cl)cccc2[N+](=O)[O-])CC1	-3	2.6	1	1	5	5277	-22
Cc1c(C(=O)OCC(=O)N(CC(C)C)c2c(N)n(Cc3ccccc3)c(=O)[nH]c2=O)oc2ccccc12	3	1.7	2	-1	.	5959	-6
O=C(CN1C(=O)NC2(CCc3ccccc3C2)C1=O)NCc1ccco1 (configuration not stated)	3	3.6	16	9	.	4587	-7
CC(NC(=O)c1ccco1)C(=O)N1CCN(c2cccc(C(F)(F)F)c2)CC1 (configuration not stated)	-1	4.1	0	7	.	3966	0
COc1ccc(C(=O)NCC(=O)OCc2ccccc2F)cc1	-1	-1.1	-3	-7	-4	4337	6
COC(=O)c1ccccc1NC(=O)c1cc[n+]([O-])cc1	-1	0.5	5	1	1	4348	-13
N#Cc1ccc(C(=O)N(Cc2ccccc2)c2ccccc2)cc1	7	1.7	0	-1	-1	6461	-21
CC(OC(=O)c1ccc(Cl)nc1)C(=O)NC1CCCC1 (configuration not stated)	-1	0.3	-11	0	.	9164	-17
CCOCCCNC(=O)N[C@H](C(=O)OC)C(C)CC (some centres not stated)	7	5.1	3	7	-11	6347	-7
O=S(=O)(c1ccccc1)c1cccc(S(=O)(=O)N2CCCCC2)c1	2	8.2	13	15	-1	7937	-17
CC(=O)NN1CCc2cc3ccc(C)cc3nc21	5	-1.9	-4	-23	-12	2925	-7
O=C(N/N=C/c1cccnc1)c1ccccc1	.	.	.	.	-4	4088	-22

Given as comma-separated lines: entries from further up
SMILES,ugtP null kill,RN4220 kill,Mtb hypoxia inh,Mtb hypoxia inh growth,BJeLR lethal,Autofluor counter,PrP UTR inh
COc1ccc(C(=O)NCC(=O)OCc2ccccc2F)cc1,-1,-1.1,-3,-7,-4,4337,6
COC(=O)c1ccccc1NC(=O)c1cc[n+]([O-])cc1,-1,0.5,5,1,1,4348,-13
N#Cc1ccc(C(=O)N(Cc2ccccc2)c2ccccc2)cc1,7,1.7,0,-1,-1,6461,-21
CC(OC(=O)c1ccc(Cl)nc1)C(=O)NC1CCCC1 (configuration not stated),-1,0.3,-11,0,.,9164,-17
CCOCCCNC(=O)N[C@H](C(=O)OC)C(C)CC (some centres not stated),7,5.1,3,7,-11,6347,-7
O=S(=O)(c1ccccc1)c1cccc(S(=O)(=O)N2CCCCC2)c1,2,8.2,13,15,-1,7937,-17

(list continues)
SMILES	ugtP null kill	RN4220 kill	Mtb hypoxia inh	Mtb hypoxia inh growth	BJeLR lethal	Autofluor counter	PrP UTR inh
CN(Cc1ccccc1)C(=O)Cc1ccccc1	2	3.9	-5	-5	-4	.	8
CC(C)(Sc1ccc(CCN(CCCCC2CCCCC2)C(=O)NC2CCCCC2)cc1)C(=O)O	86*	66	8	11	.	5506	0
COc1ccc(CNC(=O)C(=O)NCC2OCCN2S(=O)(=O)c2ccc3c(c2)OCCO3)cc1 (configuration not stated)	-1	0.4	-4	-1	8	5044	25
CC[N+](C)(CC)CC(=O)OCC1C(C)C=C(C)CC1C (configuration not stated)	8	0.7	3	14	7	.	1
CCn1nnnc1Oc1ccc(Cl)cc1	2	5.6	14	20	-3	4268	-18
COc1ccc(C2C(C(=O)Nc3ccccn3)=C(C)Nc3ncnn32)c(OC)c1 (configuration not stated)	9	1.4	11	7	2	5873	0
CCn1c(SCC(=O)c2ccc(OC)cc2)nnc1C(C)NC(=O)c1ccc(OC)cc1 (configuration not stated)	14	-18	4	6	-1	3153	-13
Cc1c(OC(C)C(=O)NCc2ccncc2)ccc2c3c(c(=O)oc12)CCCC3 (configuration not stated)	8	6.3	1	-10	0	5076	-14
CCN(CCNC(=O)C1=C(C)C(=O)OC12CCC(C)CC2)c1ccccc1 (configuration not stated)	6	3.3	-6	10	2	4934	-7
CCCCOc1ccc(NC(=O)CSc2cccc3cccnc23)cc1	-11	-5.8	7	6	-8	2535	-11
Cc1ccc(NC(=O)CN2C(=O)S/C(=C\c3cc(C)n(-c4cccc(C(=O)O)c4)c3C)C2=O)cc1	.	.	.	.	-4	4641	-15
Oc1ccc(NCc2ccc(OCc3ccccc3)cc2)cc1	-4	-0.8	2	-4	-1	2873	-14
CN1CCN(c2nc(Nc3cccc(C(F)(F)F)c3)nc(N3CCOCC3)n2)CC1	-8	-7.2	-5	3	6	5175	-23
CCOC(=O)C(C(=O)NCc1ccc(C)cc1)c1ncc(C(F)(F)F)cc1Cl (configuration not stated)	-6	-1.7	.	.	-3	3069	0
Cc1cc(S(=O)(=O)ON2C(=O)c3ccccc3C2=O)ccc1F	-3	-0.3	-1	5	0	5442	-8
CCCCc1nc2cc(C(=O)N3CCCC(COC)C3)ccc2o1 (configuration not stated)	-4	-2.2	2	9	3	6516	-43
Fc1ccc(COc2ccccc2CNCc2ccncc2)cc1	-3	6.0	7	7	-6	2435	-24
COc1ccc([N+](=O)[O-])cc1NC(=O)C(C)OC(=O)c1ccccn1 (configuration not stated)	1	1.2	14	-1	0	5195	-4
COc1ccc2c(c1)-c1c(ssc1=S)C(C)(C)N2S(=O)(=O)c1ccc(C)cc1	2	5.8	3	2	22	2718	-40
Cc1ccc(NC(=O)C(C)Sc2nnc(-c3cccnc3)o2)cc1 (configuration not stated)	7	2.6	12	-1	2	6915	-24
O=C(COC(=O)C1=COCCO1)NCc1ccc(F)cc1	-1	0.7	3	-4	2	4411	-1
Cc1cc(C(=O)Nc2ccc(Cl)cc2)c(C)n1Cc1cccs1	3	-3.4	-8	-8	-5	6052	-56
CCC1CCC2(CC1)NC(=O)N(CC(=O)c1c(C)[nH]c3ccccc13)C2=O (configuration not stated)	0	5.1	-8	-5	-14	2802	-5
CCOc1ccccc1/C=N/NC(=O)CSc1n[nH]c(=O)[nH]c1=O	.	.	.	.	-7	2281	-19
CCOC(=O)c1sc(NC(=O)c2ccc(S(=O)(=O)N(C)C)cc2)nc1C	1	0.9	.	.	3	2094	-17
O=C(COC(=O)Cc1ccccc1)Nc1ccc(SC(F)F)cc1	-1	0.6	1	-2	.	2401	-13
Cc1nn(Cc2ccccc2Cl)c(C)c1NC(=O)NC12CC3CC(CC(C3)C1)C2	-1	-0.3	12	7	1	3736	-23
COc1ccc(NC(=O)CN(C)C(=O)CCC2CCCC2)cc1	0	0.0	1	0	0	5915	-6
C/C(=N\Nc1cccc2cccnc12)c1ccc(N)cc1	.	.	.	.	-10	4224	-80
CCOC(=O)c1sc2ncnc(N3CCN(C(=O)OCC)CC3)c2c1C	-1	-6.6	22	13	6	3456	-9
COc1ccc2c(c1)c1nc3ccccc3nc1n2Cc1ccc(OC(C)C)c(OC)c1	-9	-3.5	13	7	-14	2404	-17
COc1ccc(OC)c(NC(=O)CNC(c2ccccc2)c2ccccc2)c1	2	2.2	-26	-1	-3	3696	0
COc1cc(/C=C2\SC(=O)N(CCNC(=O)c3sc4cc(F)ccc4c3Cl)C2=O)cc(OC)c1OC	19	2.1	-9	0	-4	3336	17
O=C1CC(N2CCc3ccccc32)C(=O)N1c1ccccc1 (configuration not stated)	7	1.0	10	-6	-3	.	-53
COc1cc2c(C#N)c(N3CCN(c4ccccc4OC)CC3)nc(N)c2c(N)n1	-12	-11	1	-3	-8	3369	-16
O=c1c2c3c(sc2ncn1N=Cc1ccc(Br)o1)CCCC3	-13	1.5	4	0	.	.	.
CCn1c(P(C)(=O)O)nc2cc(NC(=O)c3ccccc3Cl)ccc21	-9	-1.9	-3	2	5	2098	-21
Cc1ccccc1NC(=O)COC(=O)CCSc1ccccc1	-3	8.9	9	6	7	3325	2
CCOC(=O)CSc1nnc(CNC(=O)c2cccs2)n1Cc1ccccc1	6	3.7	-3	-3	-8	8235	-7
CC(=O)c1ccc(NC(=O)c2ccc3c(=O)n4c(nc3c2)CCCCC4)cc1	-15	-1.5	-5	-1	-8	5914	-6
COC(CN1CCc2c(C)nc3c(C#N)cnn3c21)OC	4	11	4	18	5	3972	0
NS(=O)(=O)c1ccc(CCn2c(=S)[nH]c3ccccc3c2=O)cc1	-4	-3.2	4	2	-6	4825	-25
C[C@@H]1CN(C2CCN(Cc3nc(C(c4ccccc4)c4ccccc4)no3)CC2)C[C@H](C)O1	12	6.8	5	-3	5	3486	-6
CC(C)CNC(=O)NC(=O)COC(=O)c1cc([N+](=O)[O-])ccc1NCc1ccccc1Cl	-10	0.6	-11	-10	-1	.	.
CCOc1ccc(-c2c(C(=O)N/N=C/c3ccc(C)cc3)nnn2-c2nonc2N)cc1	.	.	.	.	-24	5381	-9
CCNC(=S)Nc1c(C)n(C)n(-c2ccccc2)c1=O	-1	2.8	15	0	-20	4540	-41
Cc1ccc(C(C)C)c(OCCNC(=O)c2ccccc2O)c1	24	24	2	1	-14	3836	-4
O=C(COc1ccccc1CNCc1ccccc1)Nc1ccccc1	-10	1.2	-10	9	17	24425*	-127
O=C(NCCc1cccc(F)c1)C1CCC(=O)N(C2CCCCCC2)C1 (configuration not stated)	7	4.4	1	2	-3	5319	-25
CCOC(=O)Cc1csc(NC(=O)c2cccc([N+](=O)[O-])c2)n1	10	-3.9	2	8	3	3367	.
CCn1c(SCC(=O)N/N=C/c2cc(OC)c(O)c(OC)c2)nc2ccccc21	.	.	.	.	4	8455	-50
CC(=O)NCCc1nc2cc(NC(=O)c3cccc([N+](=O)[O-])c3)ccc2n1C	0	1.5	2	9	3	3655	-20
Cc1ccc(CNC(=O)COC(=O)Cn2nc(C)c([N+](=O)[O-])c2C)cc1	8	5.6	8	0	1	2536	-12
CC1(C(=O)N2CC3(CC(c4cccc(NC(=O)CC(c5ccccc5)c5ccccc5)c4)=NO3)CC2C(N)=O)CC1 (configuration not stated)	0	1.1	4	12	.	.	.
CC(=O)OCC(=O)N1N=C(c2ccc3ccccc3c2)CC1c1ccccc1 (configuration not stated)	-32	-4.2	-5	-3	-6	2398	-29

High-throughput results as filed in PubChem BioAssay.
